Screening results: PubChem BioAssay, several laboratories
MT1-MMP act inh: blockers of MT1-MMP proenzyme processing, primary screen, HT1080 RFP-PRO-GFP cells, GFP/RFP fluorescence; Matrix metalloproteinase-14 (Homo sapiens), P50281; GFP/RFP ratio fluorescence, overnight; percent of plate control window, DMSO zero; GFP/RFP ratio change, % at 20 µM; hit rate 0.061% among 360,000; AID 651647, 2012;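 active means GFP/RFP ratio change of at least 30% with cell ATP level not reduced by more than half and red fluorescence within 50% of control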; further: strong numbers were not always called active
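system = RFP-PRO-GFP reporter HT1080 cells | dosing = 20 µM single dose, 1% DMSO | timing = overnight cell settling, then overnight compound exposure, 37 °C, 5% CO2 | read-out basis = GFP/RFP fluorescence ratio | controls = DMSO and RFP-L50D-GFP cell wells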
Yeast UUG start: modulators of yeast start codon fidelity, primary screen, whole organism, S. cerevisiae, single point, plate reader; S. cerevisiae UUG-firefly luciferase reporter, luminescence/redox ratio; activity score, % at 18.7 µM; hit rate 0.13% among 350,000;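 active means replicate mean at a twofold rise or more, about +100% in these data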;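 further: firefly luciferase made from a UUG start codon reports start codon fidelity; reporter light over untreated wells divided by growth signal over untreated wells; some hits fall short of that in this replicate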
MT1-MMP act inh RFP: recorded beside MT1-MMP act inh, whose call it bears; RFP signal change, %; measured here: RFP expression control read;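 0 = vehicle wells; hits needed this value within 50% of zero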
* hit, by the source's call. An excerpt; rates above refer to the full screens.

SMILES	MT1-MMP act inh	MT1-MMP act inh RFP	Yeast UUG start
N#Cc1ccc(S(=O)(=O)N2CCCCC2c2cc(C(=O)NCc3ccccc3)no2)cc1 (stereo not given)	3.2	-3.7	3.9
CCC(c1nc2ccccc2[nH]1)N(Cc1cccnc1)C(=O)c1cc(-c2ccccc2)on1 (stereo not given)	-2.6	-2.1	-6.8
NC(=O)C1Cc2ccccc2CN1C(=O)c1nn(Cc2ccccc2)c(=O)c2ccccc12 (stereo not given)	2.2	2.9	-8.9
O=C(Nc1ccccc1N1CCOCC1)c1ccncc1	-3.8	1.9	-2.1
Cc1ccc(C(=O)OC(C)C(=O)NC2CCCCC2C)s1 (stereo not given)	-1.7	-9.1	-4.0
O=C(COC(=O)CCc1c[nH]c2ccccc12)Nc1ccccc1	4.3	3.2	-21.0
OC(c1cccc(Cl)c1)c1ncc(-c2ccc(C(F)(F)F)cc2)[nH]1 (stereo not given)	4.1	1.2	-16.9
COc1ccccc1C(=O)COC(=O)C1CCN(S(=O)(=O)c2ccccc2)CC1	-4.1	5.7	-27.0
CN1CCN(S(=O)(=O)c2ccc(C(F)(F)F)cc2)C(c2ccccc2)C1 (stereo not given)	-3.4	-4.7	-17.4
O=C(Oc1ccccc1)c1cc(O)c(O)c(O)c1	2.9	-9.7	-47.0
Cc1ccc(NC(=O)CSCC(=O)NC2(C)CCS(=O)(=O)C2)cc1 (stereo not given)	-1.6	0.6	-2.9
Cc1onc(-c2ccccc2)c1-c1nnc(COC(=O)c2ccc(N(C)C)cc2)o1	3.0	-3.9	-11.7
Cc1ccc(S(=O)(=O)N2C[C@H]3C(=O)C[C@@H](c4ccccc4)N(S(=O)(=O)c4ccccc4C)[C@H]3C[C@H]2c2ccccc2)cc1	-3.9	2.0	1.4
Cc1nnc(SCC(=O)NC2CCCC2)n1-c1ccccc1	0.0	4.4	-3.2
Cn1c(-c2ccccc2)cc(=O)n1-c1ccccc1	4.1	5.9	-14.9

In another format: three of the compounds above
canonical_smiles | MT1-MMP act inh | MT1-MMP act inh RFP | Yeast UUG start
O=C(Oc1ccccc1)c1cc(O)c(O)c(O)c1 | 2.9 | -9.7 | -47.0
Cc1ccc(NC(=O)CSCC(=O)NC2(C)CCS(=O)(=O)C2)cc1 (stereo not given) | -1.6 | 0.6 | -2.9
Cc1onc(-c2ccccc2)c1-c1nnc(COC(=O)c2ccc(N(C)C)cc2)o1 | 3.0 | -3.9 | -11.7

Remaining list, next part
SMILES	MT1-MMP act inh	MT1-MMP act inh RFP	Yeast UUG start
O=C(CN(Cc1ccco1)C(=O)c1ccc([N+](=O)[O-])cc1)Nc1ccccc1C(F)(F)F	1.4	6.0	13.3
CCC(C)(C)C1CCC2(CC1)NC(=O)N(CC(=O)NCCc1ccc(OC)c(OC)c1)C2=O (stereo not given)	0.7	-10.1	-2.2
CCOC(=O)c1ccc2c(c1)nc(SC(C)C(=O)NCC1CCCO1)n2CC (stereo not given)	2.1	4.2	-18.0
CC(C)CN(C(=O)CSc1nc2ccccc2[nH]1)c1c(N)n(Cc2ccccc2)c(=O)[nH]c1=O	-1.2	-0.2	-11.5
CCCCN1C(=O)C(CC(=O)NC2CCCC2)CC(C(=O)N2CCOCC2)=C1C (stereo not given)	1.7	1.4	-0.5
COc1ccc(C(CNC(=O)COc2ccc(F)cc2Cl)N2CCCCC2)cc1 (stereo not given)	-2.6	1.4	-9.7
CCOc1ccc(N(C)S(=O)(=O)c2ccc(C)c(C(=O)NCc3ccccc3OC)c2)cc1	-0.6	-2.4	8.6
COc1ccc(C(=O)OCc2c(F)cccc2Cl)cc1S(=O)(=O)N1CCOCC1	-0.4	-3.1	-9.0
Cn1nc(C(=O)OCC(=O)Nc2ccccc2[N+](=O)[O-])c2ccccc2c1=O	3.9	4.6	-5.9
O=[N+]([O-])c1ccccc1S(=O)(=O)N1CCN(S(=O)(=O)c2ccc3c(c2)OCCO3)CC1	2.1	-6.2	-11.6
CN(C)S(=O)(=O)c1ccc2nnn(OCC(=O)NC3CCS(=O)(=O)C3)c2c1 (stereo not given)	-1.6	1.4	-5.1
CCCOc1ccc(C(=O)Nc2cc(S(=O)(=O)N3CCOCC3)ccc2N2CCN(CC)CC2)cc1OC	1.1	2.8	10.1
CO[C@H]1CC[C@@]2(C)[C@@H](CC[C@@H]3[C@@H]2CC[C@@]2(C)[C@H]3C[C@H](C(=O)N[C@@H](CCCN=C(N)N)C(=O)NCC(=O)N[C@@H](CC(=O)O)C(N)=O)O[C@]23CCCO3)C1	4.2	7.2	5.2
CC(C)OC(=O)N(C)C[C@@H]1OCc2ccccc2-c2c(n(C)c3ccccc23)C(=O)N([C@@H](C)CO)C[C@H]1C	0.6	2.4	9.4
COc1ccc(-c2noc(CCC(=O)N3CCN(c4ccccc4OC)CC3)n2)cc1	3.5	-4.9	-14.0

Of the compounds above, 5 contain fluorine:
SMILES	MT1-MMP act inh	MT1-MMP act inh RFP	Yeast UUG start
OC(c1cccc(Cl)c1)c1ncc(-c2ccc(C(F)(F)F)cc2)[nH]1 (stereo not given)	4.1	1.2	-16.9
CN1CCN(S(=O)(=O)c2ccc(C(F)(F)F)cc2)C(c2ccccc2)C1 (stereo not given)	-3.4	-4.7	-17.4
O=C(CN(Cc1ccco1)C(=O)c1ccc([N+](=O)[O-])cc1)Nc1ccccc1C(F)(F)F	1.4	6.0	13.3
COc1ccc(C(CNC(=O)COc2ccc(F)cc2Cl)N2CCCCC2)cc1 (stereo not given)	-2.6	1.4	-9.7
COc1ccc(C(=O)OCc2c(F)cccc2Cl)cc1S(=O)(=O)N1CCOCC1	-0.4	-3.1	-9.0

Going on with the list.
SMILES	MT1-MMP act inh	MT1-MMP act inh RFP	Yeast UUG start
O=C(C1CCCCC1)N1C[C@H](O)[C@@H](n2cc(-c3ccc(F)cc3)nn2)C[C@@H]1c1ccccc1	-0.7	-3.5	-5.9
CC(Oc1ccc(Cl)cc1)C(=O)N1CCN(C(=O)c2ccco2)CC1 (stereo not given)	2.9	1.6	-3.9
CC(C)C[C@@H](CNCC(=O)[C@H](Cc1ccccc1)NC(=O)c1[nH]cnc1C(=O)N[C@@H](C)CN)NC(=O)c1nc[nH]c1C(=O)N[C@@H](C)C(=O)O	-1.1	0.4	130.2*
COc1ccc(S(=O)(=O)N2CCOCC2)cc1C(=O)Nc1cccc(C(=O)NC2CC2)c1	-0.2	2.4	-11.6
CCSc1nnc(NC(=O)C2CCCN(C(=O)c3ccc(Cl)cc3)C2)s1 (stereo not given)	1.5	-2.0	-2.3
C=C1C2=C(C(=O)N1OC)[C@@H](O)[C@@](C)(O)[C@@H](CCCCC)O2	-1.6	0.2	8.5
COc1ccc(F)cc1-c1cc(C(=O)NCc2ccccc2)[nH]n1	-1.5	-1.1	-10.6
CC(=O)Nc1ccc(C(=O)COC(=O)C2CC2C)c(F)c1 (stereo not given)	1.7	2.2	-56.2
CC1(C(=O)NS(=O)(=O)c2ccc(Cl)cc2)CCN1C(=O)Cc1ccc(Cl)cc1Cl (stereo not given)	-3.2	1.8	-6.8
COc1ccccc1C(CNC(=O)C1COc2ccccc2O1)N1CCCC1 (stereo not given)	2.2	5.7	11.7
CCN1C(=O)[C@H]2[C@@H](c3ccc(C)cc3)N[C@]3(CCCN(Cc4ccc(C(F)(F)F)cc4)C3=O)[C@H]2C1=O	1.7	-1.9	-3.7
Cc1ccc(OCC(=O)NN=C2C3CC4CC(C3)CC2C4)cc1	2.4	5.1	-10.1
CCCN(CC(=O)Nc1ccccc1C)C(=O)Cc1n[nH]c(=O)c2ccccc12	-1.0	4.2	2.2
Cc1c(N)cc2c(c1N)C(C)(C)CC2(C)C	0.8	2.8	-14.4
O=C(NCC1CCOCC1)c1cccc2c(-c3cccnc3)coc12	3.2	-11.5	-6.2
CC(=O)c1cccc(S(=O)(=O)NCCC(=O)NC2CCCCCC2)c1	-1.9	-1.4	2.1
COc1cc(NC(=O)c2ccc(-c3cnn(C)c3)c3ccoc23)cc(OC)c1OC	11.0	0.0	-11.4
CCOc1ccc(C(=O)NCC(=O)OCC(=O)Nc2nnc(-c3ccccc3)o2)cc1	-0.4	-0.9	-24.6
CC(C)(CNC(=O)c1cccc(S(=O)(=O)Nc2ccc(SC(F)F)cc2)c1)N1CCOCC1	0.3	-5.5	25.7
CCOC(=O)C1CN(C(=O)OCC)CC1=NNC(N)=O (stereo not given)	0.3	2.6	-6.5
O=C(COC(=O)c1cc(S(=O)(=O)N2CCOCC2)ccc1Cl)NCc1ccc2c(c1)OCO2	0.5	-0.2	-12.7
Cc1ccc(S(=O)(=O)N2[C@H](c3ccc(Cl)cc3)CC(=O)[C@@H]3CN(S(=O)(=O)c4ccccc4C)[C@H](c4ccc(Cl)cc4)C[C@@H]32)cc1	-0.3	-13.4	-13.1
CC1(Cc2cc(Cl)ccc2C(F)(F)F)C(=O)Nc2cc(F)ccc21 (stereo not given)	-3.1	-8.9	-11.3
CCN1CCN(c2ncc(C(=O)N3CCN(c4ccccc4OC)CC3)c3ccccc23)CC1	-6.3	-2.1	-1.1
Oc1ccccc1C=NNc1nc2ccccc2s1	6.3	-10.5	-17.9
O=C(Nc1nnc([C@H]2C[C@H](O)[C@@H](CO)O2)s1)Nc1ccccc1C(F)(F)F	-1.6	0.2	-28.5
Cc1ccc(-c2noc(CCC(=O)N3CCN(c4cc(C)ccc4C)CC3)n2)cc1	3.2	3.2	-6.1
O=C(CSc1nc2nn(-c3ccccc3)c(=O)c-2c2n1CCCCC2)Nc1ccc(F)cc1F	-3.2	1.2	12.5
CC1(C(=O)Nc2cccc3ccccc23)CCN1C(=O)C1(c2ccccc2)CCCC1 (stereo not given)	-1.2	-5.3	7.8
CCc1cc(C(=O)OCC(=O)NCCc2ccccc2)sc1C	-5.8	4.9	-8.5
O=C(CCN1CCC2CCC(C2)C1)c1ccc(F)cc1 (stereo not given)	0.4	0.1	-6.2
CCOC(=O)c1ccc2[nH]c(C)c(CN3CCN(C)CC3)c(=O)c2c1	-3.9	0.6	-15.2
Cc1ccc(C(=O)NCCc2ccccc2)cc1S(=O)(=O)N1CCOCC1	0.8	-4.1	-11.7
Cc1ccc(Cc2c(-c3cccc(Cl)c3)nc3c(C)cc(Br)cn23)cc1	-2.3	-2.8	-5.5
CC[C@H](C)[C@H]1CNC(=S)N1CC1CCN(CCC(C)C)CC1	1.7	2.3	-13.7
CC(Sc1nnc(C2CC2)n1C1CC1)C(=O)Nc1ccccc1C#N (stereo not given)	-2.7	-3.2	4.1
COc1cccc(CN(C)C(=O)CC[C@H]2O[C@@H](n3ccc(=O)[nH]c3=O)[C@H](O)[C@@H]2O)c1	3.6	3.1	-23.8
Cc1cccc(C)c1NC(=O)CN1CCN(C(=O)CN2C(=O)NC3(CCCCC3C)C2=O)CC1 (stereo not given)	5.0	-3.8	-8.2
COc1ccccc1/C=C/C(=O)OCC(=O)N1CCc2ccccc21	-1.7	2.9	1.0
COC(=O)c1c(C)[nH]c(C(=O)C(C)OC(=O)c2ccco2)c1C (stereo not given)	7.9	3.7	-12.1
COc1ccc(C(CNC(=O)COc2cccc(C(F)(F)F)c2)N2CCCC2)cc1 (stereo not given)	9.3	7.8	15.9
C=CCNc1nc(C(=O)OCC(=O)Nc2ccccc2C(F)(F)F)cs1	-3.2	2.4	-7.1
Nc1ncnc2c1ncn2[C@@H]1O[C@H](C(=O)N2CCN(Cc3ccccn3)CC2)[C@@H](O)[C@H]1O	5.3	7.8	-12.9
COc1cc(CCc2ccccc2)c(C(=O)O)c(O)c1CC=C(C)C	-5.7	-16.0	-6.4
CCn1c(SC(C)C(=O)NCC2CCCO2)nc2ccccc21 (stereo not given)	-2.7	2.9	-37.0
O=C1CCCCC1(O)Cc1ccc2c(c1)OCO2 (stereo not given)	0.2	3.2	-0.7
CC(c1ccccc1)C(OC(=O)c1cccc([N+](=O)[O-])c1C(=O)O)c1ccccc1 (stereo not given)	0.5	4.1	6.2
CC(C)Cn1cnc2c(SCc3ccccc3Cl)nc(N)nc21	1.8	-9.4	-19.8
CC1(c2ccccc2)NC(=O)N(CC(=O)N2CCN(S(=O)(=O)c3cccc(C(F)(F)F)c3)CC2)C1=O (stereo not given)	4.8	-0.5	-32.3
Cc1ccc(S(=O)(=O)NN=C2CCc3ccccc32)cc1	3.3	3.0	16.3
COc1ccc(NC(=O)CSCC(=O)N2CCN(C(=O)c3ccco3)CC2)cc1	0.7	0.8	-2.5
COc1cccc(N2CCN(C(=O)c3cc(C)oc3C)CC2)c1	-16.6	-4.5	-10.4
CCOc1ccccc1OCCCC(=O)Nc1cccc(-n2cnnn2)c1C	-2.8	-1.0	-13.5
CC(Sc1nnc(C2CC2)n1C1CC1)C(=O)N(C)Cc1cccc(F)c1 (stereo not given)	-2.1	6.0	-14.2
CC1CN(S(=O)(=O)c2ccc(C(=O)OCc3ccc(C#N)cc3)cc2)CC(C)O1 (stereo not given)	-1.8	2.8	-12.9
COc1ccc(Cl)cc1NC(=O)CN(C)C(=O)Cc1ccc(-c2ccccc2)cc1	-2.2	-2.3	7.0
O=C(COC(=O)CNC(=O)C1CCCCC1)Nc1ccc(Br)cc1Br	0.0	0.5	-12.2
